Screening results: PubChem, ICCB-Longwood Screening Facility, Harvard Medical School
Mtb MbtI inh = inhibitors of Mycobacterium tuberculosis siderophore enzyme MbtI; purified MbtI enzyme, fluorescence intensity read-out; P9WFX0; AID 493033; 0.89% of 100,000 active; inhibition, %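 (about 17 µg/mL by stock and volumes)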;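 active = above 50% in both replicates, above 80% if mildly self-fluorescent; inactive = the rest, strongly fluorescent compounds included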;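 note: 0% = mean of negative and 100% = mean of positive controls; one replicate is shown; some compounds called inactive have numbers as strong as hits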
Target sequence (P9WFX0 whole entry, looked up): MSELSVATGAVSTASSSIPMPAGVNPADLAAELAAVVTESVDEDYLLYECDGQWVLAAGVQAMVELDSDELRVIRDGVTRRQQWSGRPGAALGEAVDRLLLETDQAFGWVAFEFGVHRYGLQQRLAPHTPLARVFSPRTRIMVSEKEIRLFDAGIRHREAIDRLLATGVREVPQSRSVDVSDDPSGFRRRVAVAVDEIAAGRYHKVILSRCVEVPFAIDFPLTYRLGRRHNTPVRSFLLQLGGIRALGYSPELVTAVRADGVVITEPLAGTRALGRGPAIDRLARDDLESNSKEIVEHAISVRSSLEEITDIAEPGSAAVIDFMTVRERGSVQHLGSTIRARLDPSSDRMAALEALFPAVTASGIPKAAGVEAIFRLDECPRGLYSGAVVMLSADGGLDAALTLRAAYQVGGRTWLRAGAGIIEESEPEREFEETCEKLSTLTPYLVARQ
Polio RdRp inh = inhibitors of poliovirus RNA polymerase binding and polymerization; poliovirus polymerase elongation, fluorescence polarization; active compounds read low; % elongation, % (compound at 16.7 µg/mL); 0.66% of 150,000 active; AID 588519; in the data active = % elongation below about 90%; note: some results filed as inactive read as strong as hits
MenB inh = blocks the Mycobacterium tuberculosis MenB enzyme; AID 540299; 0.43% of 100,000 active; MenB enzyme assay, absorbance read-out; some hits fall short of the stated cut; inhibition, %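 (about 12 µg/mL by stock and volumes)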; P9WNP5;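 active = mean of two replicates above 30%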;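 note: 0% = no compound and 100% = wells with inactive enzyme; the first replicate is given; strong numbers were not always called active; inactives centre near -10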
Target sequence (P9WNP5 whole entry, looked up): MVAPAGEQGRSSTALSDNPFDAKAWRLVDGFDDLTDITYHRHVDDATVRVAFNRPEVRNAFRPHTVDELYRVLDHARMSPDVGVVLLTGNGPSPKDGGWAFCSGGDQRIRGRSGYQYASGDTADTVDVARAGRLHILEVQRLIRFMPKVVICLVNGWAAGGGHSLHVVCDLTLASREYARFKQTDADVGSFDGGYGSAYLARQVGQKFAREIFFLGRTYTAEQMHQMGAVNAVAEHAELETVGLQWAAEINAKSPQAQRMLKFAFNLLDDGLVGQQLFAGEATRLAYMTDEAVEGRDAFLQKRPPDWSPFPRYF
Polio RdRp inh intensity = recorded beside Polio RdRp inh, whose call it bears; % elongation; measured here: total intensity read-out; formula for this scale not given here;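 total fluorescence in place of polarization; lower means less elongation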
* marks the source's active call; other numbers are inactive results; i = inactive; . = not tested or not shown; & = joins results of further samples.

SMILES	Mtb MbtI inh	Polio RdRp inh	Polio RdRp inh intensity	MenB inh
CCn1ncc(-c2ccnc3cc(C(=O)O)nn23)c1C	89	93	93	-32
Cc1ccc(CNc2ccc(O)cc2)s1	31	103	100	-27
O=c1cc(C(F)(F)F)[nH]c2c(Br)cccc12	4	103	105	-18
COC(=O)c1cc(-c2ccccc2)nc2ccc(C)cc12	-3	102	108	-23
CC(C)(C)C(=O)c1sc(NCc2ccco2)c(C(N)=O)c1N	22	108	115	-10
O=S(=O)(N/N=C/c1ccc2c(c1)OCO2)c1ccc(Cl)cc1	6	100	103	8
NC(=O)NC(=O)CC1S/C(=N/N=C2\CSC(=O)N2)NC1=O (stereo not drawn)	0	93	89	-17
COc1ccc(CSc2nnc(SCc3ccc(C(=O)O)cc3)s2)cc1	.	103	99	-44
O=C(CCOc1ccccc1)NCC(c1ccco1)N1CCCCC1 (stereo not drawn)	-8	103	105	-23
CCCNS(=O)(=O)c1nc2nc(C)cc(C)n2n1	.	106	110	-8
Cc1oc(C(=O)O)cc1CSc1ccccc1C(=O)O	3	100	96	-18
Cc1nnc(SCC(=O)c2c[nH]c3ccccc23)n(N)c1=O	-9	102	112	-2
O=C(NCc1cccnc1)C1c2ccccc2C(=O)N1Cc1ccccc1 (stereo not drawn)	-8	104	105	-37
CCOc1ccccc1NC(=O)NCc1ccccc1	-14	104	104	-22
COc1ccc(N=C2SCC(=O)N2Cc2ccccc2)cc1	-5	101	100	-10
CC(=O)N1CCc2cc(S(=O)(=O)NC(CC(C)C)C(=O)N3CCN(c4ccc(F)cc4)CC3)ccc21 (stereo not drawn)	2	101	101	-5
CCOC(=O)C(CC)Sc1nnc(-c2c[nH]c3ccccc23)n1CCOC (stereo not drawn)	-8	102	105	-21
COc1cc(C)ccc1OCC(=O)NN1C(C)CCCC1C (stereo not drawn)	-3	104	106	-13
CC(C)n1cc(-c2nc(C(C)(C)C)cs2)c(=O)n(Cc2ccccc2)c1=O	-104	102	99	9
COC(=O)C1C(c2ccc(OC)cc2)c2c([nH][nH]c2=O)CC1(C)O (stereo not drawn)	-7	106	100	-25
COC(=O)c1ccccc1NC(=O)CNc1cc(OC)c(OC)cc1C	10	105	98	13
CC1CCCN(Cc2nc3c(c(=O)n(C)c(=O)n3C)n2CCc2ccccc2)C1 (stereo not drawn)	-10	104	100	-2
CN(C(=O)CSc1nnc(Nc2ccccc2)s1)C1CCS(=O)(=O)C1 (stereo not drawn)	14	104	95	10
CC(=O)Nc1ccc(NC=C(C#N)C#N)cc1	6	.	.	-14
CC(C)CCN1C(=O)C2(NN(CCO)C(=Nc3ccccc3)S2)c2ccccc21 (stereo not drawn)	102	105	100	-20
Additional compounds follow.
SMILES	Mtb MbtI inh	Polio RdRp inh	Polio RdRp inh intensity	MenB inh
CCOC(=O)Cc1csc(/C(=N/O)C(N)=O)n1	-14	103	101	-30
COc1ccc(CN(C)CC(=O)NC(=O)Nc2ccc(C)cc2C)cc1	0	100	108	9
N#C/C(=C/c1ccccc1)c1cccc(C#N)c1	16	102	103	-20
Cc1ccc(-c2cc(NC(=O)COC(=O)C3=NNC(=O)CC3)n(-c3ccccc3)n2)cc1	9	101	101	3
Cc1ccc(C(=O)OC2OCCOC2OC(=O)c2ccc(C)cc2)cc1 (stereo not drawn)	13	102	97	-3
Cc1ccc2c(c1)CCCN2C(=O)C1CCCN1C(=O)OC(C)(C)C (stereo not drawn)	-4	106	103	-19
CCC(=O)Nc1ccc(N2CCN(C(=O)CC(C)C)CC2)cc1	-24	102	104	-11
CCOC(=O)c1oc2ccccc2c1CN(C)Cc1ccccc1OC	3	102	105	-18
COc1ccc(NC(=O)c2sc3cc(Cl)ccc3c2Cl)cn1	1	102	96	.
CCOC(=O)Cc1nc2cc(Cl)ccc2o1	2	101	101	-20
O=C(O)CSc1nnc(-c2ccccc2Br)n1C1CCCCC1	.	103	108	3
CNC(=O)C(NS(=O)(=O)c1ccc(C)cc1)C(C)C (stereo not drawn)	.	102	112	-10
CCN(CC)c1ccc(/C=C2/SC(=Nc3cccc(C)c3)NC2=O)c(OC)c1	.	46	254	-80
COc1c2occc2c(OC)c2c(=O)cc(C)oc12	1&-3	100&102	100&100	1&-9
O=C(CSc1nc(-c2ccccc2)cc(C(F)(F)F)n1)N1CCCCC1	0	100	103	-58
O=C(Cn1nnc(-c2cccs2)n1)OCc1nc2sc3c(c2c(=O)[nH]1)CCC3	-1	108	121	-16
CNc1oc(COc2ccc(C)cc2)nc1C#N	-4	100	102	4
C=CCN(CC=C)C(=O)Nc1ccccc1	-13	101	101	-5
Cc1cc(NC(=O)COC(=O)c2ccccc2)no1	-5	99	92	-36
O=C1Nc2ccc(Br)cc2/C1=N/N1C(=O)C(O)=CC1(O)c1ccccc1 (stereo not drawn)	.	93	84	-203
Cc1ccc(C)c2[nH]c(=O)c(C(c3nnnn3C3CCCC3)N3CCCC3)cc12 (stereo not drawn)	56	99	103	6
CC(Sc1nnc(Cc2cccs2)n1C)C(=O)c1ccc(NS(C)(=O)=O)cc1 (stereo not drawn)	-10	104	125	-15
Nc1cc(=O)[nH]c(SCCCCN2C(=O)c3ccccc3C2=O)n1	10	98	104	-5
N#CC(=S)Nc1ccc(F)cc1	7	85*	88*	-9
O=C(N/N=C(\Cc1ncc[nH]1)c1ccccc1)c1cccs1	4	103	109	-43
Later entries
SMILES	Mtb MbtI inh	Polio RdRp inh	Polio RdRp inh intensity	MenB inh
O=C1/C(=C\C=C\c2ccco2)SC(=S)N1NS(=O)(=O)c1ccccc1	41	.	.	-119
CCOC(=O)c1sc(NC(=S)NC(=O)c2cc3ccccc3o2)nc1C	6	100	100	-7
CCOc1ccc(CN2CCC(C(=O)NCC3CCCO3)CC2)cc1OC (stereo not drawn)	2	102	101	-26
COc1ccc(C)cc1N1CC(C(=O)Nc2cc(Cl)ccc2N2CCN(C)CC2)CC1=O (stereo not drawn)	2	104	97	-11
COc1ccc(S(=O)(=O)C(C)(C)C)cc1	-16	101	101	3
CCOC(=O)C1CCN(C(=O)CSc2ccccc2Cl)CC1	-2	104	107	.
CCc1ccc(NS(=O)(=O)c2ccc(CN3C(=O)c4cccnc4C3=O)cc2)cc1	-9	102	102	-28
O=C(CN1CCCN(Cc2ccccc2)S1(=O)=O)NC1CCCC1	6	102	98	-32
CC1CCc2nc3ccc(S(=O)(=O)N4CCC(C(=O)N5CCCCC5)CC4)cc3c(C(=O)O)c2C1 (stereo not drawn)	-7	103	104	-1
Cc1cccc(NC(=O)c2cnc3ccccn3c2=O)c1	3	99	103	5
CCN1CCN(C(=O)CSc2ccc(C)cc2)CC1	4	99	100	-32
O=C1Nc2ccccc2S/C1=C/c1ccc(C(=O)NC2CCCC2)cc1	-7	103	107	-56
O=C(O)c1ccccc1OP(=O)(O)O	-13&-39	99&98	101&100	-7&-1
O=C1c2cccnc2C(=O)N1Cc1ccc(S(=O)(=O)NCc2ccco2)cc1	1	100	98	8
NC1=NC(c2ccccc2C(F)(F)F)N(c2ccc(F)c(Cl)c2)C(N)=N1 (stereo not drawn)	9	102	106	-22
O=C(O)C12CCCC(C(=O)O)(CCC1)C2	-3	104	102	-2
COc1ccc(CC2c3cc(OC)c(OC)cc3CC[N+]2(C)CCC(=O)OCCCCCOC(=O)CC[N+]2(C)CCc3cc(OC)c(OC)cc3C2Cc2ccc(OC)c(OC)c2)cc1OC (stereo not drawn)	-9	100	103	6
Cc1ccccc1NC(=S)NC(=O)C(C)C	-5	100	101	-27
O=C(NCCSc1c[nH]c2ccccc12)c1ccc(Br)o1	4	100	102	14
Cc1ccccc1/C=N/O	-3	100	107	1
Cc1ccc(CCN2CC(C(=O)N3CCC4(CC3)OCCO4)CC2=O)cc1 (stereo not drawn)	-11	100	103	-31
COc1ccc(NC(=O)CC#N)cc1	-8	100	99	-11
COCCCNC1CC(=O)N(c2ccc(OC)cc2)C1=O (stereo not drawn)	-1	101	102	5
Cc1ccc(-c2cn(-c3ccc(C)cc3)c(=N)s2)cc1	7	106	109	-57
COc1ccc(-c2ncnn2-c2sc3c(c2C#N)CCCC3)cc1	-5	100	102	8
The list continues:
SMILES	Mtb MbtI inh	Polio RdRp inh	Polio RdRp inh intensity	MenB inh
CS(=O)(=NC(=S)NC(=O)Oc1ccccc1)c1ccccc1 (stereo not drawn)	-7	105	110	-9
O=C(COCc1cc(-c2ccc(F)cc2)on1)NC1CCCc2ccccc21 (stereo not drawn)	1	102	105	-10
O=C1CC(/C=C/c2ccccc2)=Nc2ccccc2N1	-3	101	104	-62
O=C(CSc1nnc(Nc2ccccc2)s1)c1ccc(S(=O)(=O)N2CCCC2)cc1	20	102	102	9
CC(=O)NN1C(=O)c2ccccc2NC1c1ccco1 (stereo not drawn)	119	101	100	-8
CC1CCN(C(=O)/C=C/c2c(Cl)nc3sccn23)CC1	-3	102	102	.
Cc1cc(NC(=O)c2ccccc2C)no1	5	.	.	-2
Clc1ccc2c(c1)-c1[nH]ncc1CS2	75	104	97	-22
Cc1ccc(S(=O)(=O)/N=C/c2cccnc2)cc1	-11	100	102	5
COCC(C)NC(=O)c1cc(-c2ccc(OC)c(OC)c2)no1 (stereo not drawn)	-21	102	102	3
CCOC(=O)c1sc2nc(COC(=O)c3ccc(OCc4c(C)noc4C)cc3)[nH]c(=O)c2c1C	-58	108	101	-24
CCCCOc1c(Cl)cc(CNC(C)(C)CO)cc1OCC	-8	102	101	5
CC(C)(C)C1C/C(=C/c2ccccn2)C(=O)/C(=C/c2ccccn2)C1 (stereo not drawn)	6	99	104	-12
CN1C(C(=O)N2CCCc3ccccc32)=CC(c2cccs2)=NS1(=O)=O	-12	105	105	-47
NCc1ccc(S(N)(=O)=O)cc1	-1&-19	99&102	102&101	-1&0
CCc1ccc(CN2CCNCC2)cc1	.	99	105	4
CCN(CC)c1nc(OCC(F)(F)F)nc(N(c2ccccc2)c2ccccc2)n1	-6	105	101	-50
CCOc1nc(SC)nc2sc3c(c12)CCN(C)C3	71	101	102	-5
CC1(C)Cc2[nH]c(=O)c(C(=O)O)cc2CO1	116	101	101	10
Cc1ccc(N2C(=O)CSC2/C=C/c2ccccc2)cc1 (stereo not drawn)	.	120	132	-13
Cc1ccc(OCC(=O)NCc2ccco2)c(C(C)(C)C)c1	6	102	101	-37
CC1(C)N2CN(CCCCN3CN4N(C3)C4(C)C)CN21 (stereo not drawn)	.	107	104	-28
Cc1cc(N)ccn1	0	110	112	-5
CN(C)c1ccc(/C=C2/C=C(c3ccccc3)OC2=O)cc1	0	74	195	0
c1ccc2[nH]c(CN3CCOCC3)nc2c1	.	115	117	-13
More records follow.
SMILES	Mtb MbtI inh	Polio RdRp inh	Polio RdRp inh intensity	MenB inh
N#Cc1cc(C#N)c(SCc2ccc(Cl)cc2)nc1N	-88	100	102	-16
Cc1ccc(CCN2CC(C(=O)NC3CCCCC3)CC2=O)cc1 (stereo not drawn)	-23	100	102	-17
COc1cc(C#N)ccc1OC(=O)Cc1coc2ccc3ccccc3c12	143	108	120	-9
CC(C)C(CC(=O)O)NS(=O)(=O)c1ccc(F)cc1 (stereo not drawn)	8	98	101	1
CC1CC(Sc2nnc(-c3cccs3)n2C2CC2)C(=O)O1 (stereo not drawn)	-37	104	102	-8
O=C(CSc1ccccc1C(=O)Nc1ccnn1Cc1cccs1)NCc1ccco1	11	101	103	-11
CC(C)c1ccc(NC(=O)CSc2n[nH]c(=O)n2C(C)c2ccccc2)cc1 (stereo not drawn)	4	99	96	-5
Cc1nc2ccccc2c2nc(N)nn12	i	104	101	-13
O=C(CSc1ncn[nH]1)c1cccc(C(F)(F)F)c1	13	101	101	12
CCOC(=O)c1sc(SC#N)c(-c2ccccc2)c1N	.	95	92	-18
Cn1cc(C2=C(c3cn(CCCSC(=N)N)c4ccccc34)C(=O)NC2=O)c2ccccc21	0	101	109	.
Cc1ccc(C)c(S(=O)(=O)c2nnn3c2nc(NCCC(C)C)c2ccccc23)c1	18	102	107	-7
Clc1ccc(C(Cn2ccnc2)OCc2c(Cl)cccc2Cl)c(Cl)c1 (stereo not drawn)	-3	98	101	0
